A1 inh – caspase 3/7 activation in MEF A1-2A-BIM cells, primary screen, A1 inhibitor project, cell-based, luminescence, HTS | caspase activation, % (concentration not given with the values) | Caspase-Glo 3/7 luminescence, 3 h; percent of clofoctol response, vehicle zero | 330,000 tested, 0.066% active;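 active means over half of replicate activation scores above 10%, or exactly half above 10 with the replicate mean above 10; inconclusive means replicate mean below 10 yet half the replicates above 10; inactive means over half of replicates below 10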;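 further: wells of about 30 µL received 50 nL stock; many hits fall short of the cut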
LANA-H2A inh – blockers of LANA interaction with H2A/H2B – biochemical, FP readout, HTS, primary screen; inhibition, % (no concentration beside the values); cell-free LANA-H2A/H2B peptide, fluorescence polarization; Protein LANA1 (Human herpesvirus 8 type P (isolate GK18)), Q9QR71; 320,000 tested, 0.6% active; in the data active means inhibition mostly above about 10%, no sharp cut-off; inactive means mostly below about 6.7%;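 further: stock transfer was 7.5 nL into about 10 µL; 0% = median of vehicle wells and 100% = median of positive control wells; one replicate is shown; the record names a cut of 25% in any replicate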
Beta cell apopt – inhibitors of cytokine-induced beta cell apoptosis, primary screen, luminescence; protection from apoptosis, % (concentration not given with the values); AID 435005, 2010; INS-1E cytokine-induced death, ATP luminescence, 48 h; percent of positive-control rescue, neutral wells zero; 300,000 tested, 0.8% active;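 active means all replicates at 75% or more, or half of them and the mean; inconclusive means half reach 75% but not the mean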;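 further: 0% = cytokine-treated negative control wells and 100% = positive control rescue; higher means more ATP so stronger rescue from cytokine killing; wells of about 40 µL received 100 nL stock; the first replicate is given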
MLL AF4-AF9 inh – inhibitors of AF4 peptide binding to AF9, primary screen, biochemical, AlphaScreen, biotin-AF4 peptide, FLAG-AF9, single point; Protein AF-9 (Homo sapiens), P42568; inhibition, % at 10 µM; 350,000 tested, 0.47% active;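 active means every replicate reaching a set inhibition limit, whatever the replicate mean, cut at about 25% in these data; inconclusive means mean inhibition reaches that limit but some replicates miss it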;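 further: 0% = plate neutral control median and 100% = total signal loss; the record names both 10 and 1 µM as test concentration; the first replicate is given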
Target sequence (P42568 whole entry, looked up): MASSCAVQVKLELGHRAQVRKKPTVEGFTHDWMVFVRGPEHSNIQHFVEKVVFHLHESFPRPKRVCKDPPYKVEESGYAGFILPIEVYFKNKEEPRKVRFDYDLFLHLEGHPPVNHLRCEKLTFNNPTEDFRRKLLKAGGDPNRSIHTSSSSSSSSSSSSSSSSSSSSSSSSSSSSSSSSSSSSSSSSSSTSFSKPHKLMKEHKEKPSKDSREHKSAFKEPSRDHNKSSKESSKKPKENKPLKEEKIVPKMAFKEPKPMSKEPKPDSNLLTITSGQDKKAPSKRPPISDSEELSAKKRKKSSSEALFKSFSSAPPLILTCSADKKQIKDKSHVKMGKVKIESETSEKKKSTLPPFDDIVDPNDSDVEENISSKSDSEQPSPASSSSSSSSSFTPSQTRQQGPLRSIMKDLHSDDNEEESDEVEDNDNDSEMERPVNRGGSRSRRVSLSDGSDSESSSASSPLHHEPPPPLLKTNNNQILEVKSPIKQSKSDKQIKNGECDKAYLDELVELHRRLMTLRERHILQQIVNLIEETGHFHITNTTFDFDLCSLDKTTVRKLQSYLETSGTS
T cruzi repl – inhibitors of intracellular T. cruzi growth, primary screen, luminescence, NIH3T3 host cells; inhibition, % (concentration not given with the values); AID 1885, 2009; 300,000 tested, 1.4% active; T. cruzi beta-gal in NIH3T3, 90 h;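 active means mean inhibition across valid replicates above about 55%, limit read from the data; inconclusive means mean below that limit but half or more replicates reach it; inactive means mean below it, under half of replicates reach it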;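 further: signal also drops with host cell toxicity which is not excluded here; 0% = plate median of DMSO wells and 100% = zero luminescence signal; higher percent means less beta-gal luminescence so fewer parasites; stock transfer was 50 nL into about 50 µL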
RanGTP-Impb inh – inhibitors of RanGTP-importin-beta interaction, primary screen, biochemical, FRET, CFP-Ran, YFP-importin-beta, homogeneous; Ran GTPase (GTP-bound) - importin-beta complex; cell-free CFP-Ran/YFP-importin-beta FRET ratio; inhibition, % (concentration not given with the values); 300,000 tested, 1.1% active; AID 2216, 2009;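 active means most replicates above 15%; inconclusive means exactly half above 15%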;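 further: 0% = DMSO wells and 100% = Ran loaded with GDP instead of GTP; wells of about 40 µL received 100 nL stock; the first replicate is given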
Calb FLC – C. albicans growth inhibition with fluconazole, primary screen, CaCi-2 strain, Alamar Blue fluorescence. C. albicans CaCi-2 (fluconazole-resistant clinical isolate) + fluconazole, 48 h. growth inhibition, % (concentration not given with the values). 300,000 tested, 0.57% active;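 active means most replicates above 75%; inconclusive means exactly half above 75%; inactive means most below 75%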;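 further: all wells also contain fluconazole at 8 µg/ml as a sub-toxic cotreatment; 0% = median of DMSO wells and 100% = median of geldanamycin control wells; wells of about 8 µL received 7.5 nL stock; the first replicate is given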
Vif A3G – inhibitors of Vif binding to APOBEC3G peptide, primary screen, biochemical, TR-FRET, GST-Vif 1-94, biotin-A3G peptide, dose response retest (AID 1117319). TR-FRET GST-Vif / biotin-A3G peptide binding; higher % means a stronger effect; test concentration not given here; strong numbers were not always called active. inhibition, %; hits with a dose series show IC50 in µM. 260,000 tested, 0.57% active;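 active means above the screen mean plus three standard deviations and confirmed in dose response; inconclusive means results disagree or hit not tested in dose response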;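 further: Vif residues 1-94 fused to GST binding biotinylated APOBEC3G peptide 110-148; 0% = full assay without inhibitor and 100% = GST in place of GST-Vif; retest series ran down from 100 µM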
The depositor's hits bear a star; u = inconclusive; x = not tested or not shown.

nr	mol	A1 inh	LANA-H2A inh	Beta cell apopt	MLL AF4-AF9 inh	T cruzi repl	RanGTP-Impb inh	Calb FLC	Vif A3G
1	COc1ccc(CCNC(=O)CNS(=O)(=O)c2ccc(N(C)C)c([N+](=O)[O-])c2)cc1OC	1.2	2.1	-7.3	1.7	5.5	4.7	-1.5	2.4%
2	COCCN(CC(=O)Nc1cccc(C)c1C)C(=O)c1oc2c(Cl)cccc2c1C	-0.7	-0.1	-6.0	0.8	x	x	x	-0.6%
3	CCN(CC)C(=O)c1sc(NC(=O)Cc2ccc(OC)cc2)c(C#N)c1C	0.0	-4.3	-24.1	x	5.3	0.8	1.0	0.1%
4	O=C(CN1C(=O)NC2(CCCCC2)C1=O)Nc1nc2c(F)cc(F)cc2s1	0.6	-3.2	-6.1	-13.8	-4.2	1.1	14.8	1.5%
5	CC(C)OC(=O)c1c2c(n3ccccc13)C(=O)c1ccccc1C2=O	0.6	1.4	10.7	8.3	31.5	-50.5	-15.9	8.2%
6	Cc1ccc2oc(=O)n(CC(=O)N3CCOCC3)c2c1	0.0	3.8	-5.7	-3.8	x	u	-2.5	-8.4%
7	COC/C=C/C1=CC2=CC(=O)C(C)(OC(=O)c3cnc4ccccc4n3)C(=O)C2=CN1CC1CC1 (stereo not drawn)	-0.4	1.9	0.7	x	-2.7	1.4	20.2	x
8	CCCN1CCC(CCOc2ccccc2)(C(=O)OCC)CC1	0.1	0.3	x	1.8	-13.8	0.8	-9.8	x
9	COc1ccc(CCNC(=O)COc2ccc(S(=O)(=O)NCC(C)C)cc2Cl)cc1OC	-0.6	0.7	-2.4	-15.8	-1.2	-2.5	17.4	29.4%
10	CC(NCc1ccc(S(N)(=O)=O)cc1)C(=O)N1CCc2ccccc21 (stereo not drawn)	0.0	-2.2	-2.1	-5.7	4.9	0.7	-10.5	x
11	O=C(c1ccccc1-c1ncc[nH]1)N1CCc2c([nH]c3ccccc23)C1c1ccccn1 (stereo not drawn)	-0.2	0.4	-7.7	12.3	12.6	1.3	23.9	x
12	COc1cc2c(cc1NC(=O)COC(=O)c1ccccc1)oc1ccccc12	0.7	-2.9	2.1	x	1.5	0.1	-3.7	0.6%
13	COC(=O)c1ccccc1NC(=O)C(C)n1nc(C)c2c(C)n(-c3ccccc3)nc2c1=O (stereo not drawn)	0.7	1.6	2.2	2.3	26.2	-1.0	1.7	x
14	Cc1ccc(NS(=O)(=O)c2cccc(C(=O)Nc3cc(C)on3)c2)cc1	1.7	1.2	5.3	x	8.1	-1.0	15.4	4.0%
15	COc1ccc(N2CCN(S(=O)(=O)c3c(C)n(C)c(=O)n(C)c3=O)CC2)cc1	0.4	-3.4	-6.2	-4.4	-4.5	0.4	0.1	x
16	COc1ccc(C(=O)Nc2ccc3cn[nH]c3c2)c(OC)c1	-3.7	-11.2	-3.7	-9.0	24.4	1.4	30.5	-5.8%
17	CCOC(=O)c1c(NC(=O)C2CC(Cl)=CCC2C(=O)O)sc2c1CC(C)(C)OC2 (stereo not drawn)	0.0	0.9	-1.6	-0.8	6.0	-0.1	28.3	-4.5%
18	O=C(O)c1[nH]c2ccccc2c1C(c1cc(Cl)cc([N+](=O)[O-])c1O)c1c(C(=O)O)[nH]c2ccccc12	-0.7	3.6	x	1.1	-3.0	2.4	22.8	5.4%
19	CCN(CC)S(=O)(=O)c1cccc(C(=O)Nc2ccc3c(c2)OCO3)c1	-2.0	3.8	-0.3	3.3	1.9	-2.4	-12.1	-8.3%
20	CC(C)(CSc1ccccn1)NS(=O)(=O)c1ccccc1	0.9	-1.9	x	x	-5.4	-3.7	-22.7	25.3%
21	COC(=O)c1ccc(NC(=O)CN2CCN(c3ccc(Cl)cc3)CC2)cc1	0.7	-0.2	0.9	x	9.6	-0.8	9.0	-9.6%
22	CCC1CCCCN1C(=O)c1ccc(OC2CCN(Cc3ccccn3)CC2)cc1 (stereo not drawn)	0.1	0.6	0.8	2.1	9.2	u	7.2	x
23	CN(C)CCCn1c2c(c(SCC(=O)Nc3cccc4ccccc34)nc1=O)CCCC2	0.9	-2.3	-8.9	2.6	41.5	2.2	1.0	-5.6%
24	Cc1ccc(NC(=O)CC2(CC(=O)O)CCCC2)cc1	0.4	9.1	-6.5	-1.1	-7.9	1.0	2.5	1.2%
25	COCCn1c(COC)nc2ccccc21	-0.3	1.5	-1.1	x	-14.3	-1.1	2.9	3.3%
26	O=c1c2c([N+](=O)[O-])cc([N+](=O)[O-])cc2sn1-c1ccc(Br)cc1	-2.8	3.7	3.3	x	x	x	x	19.0%
27	S=c1[nH]nc(Cn2c(-c3ccccn3)nc3ccccc32)n1-c1ccc2c(c1)OCCO2	-2.2	3.9	5.7	-4.2	-6.2	7.9	15.7	14.1%
28	CN1C(=S)SC(/[N+]([O-])=C/c2cccnc2)C1(C)C (stereo not drawn)	0.6	6.3	1.1	x	-13.7	-1.7	3.6	24.0%
29	Cc1cc(C)c2ccc(N)nc2c1O	-0.9	-1.6	34.3	x	17.0	u	107.3*	9.0%
30	Cc1cc2nc(-c3ccc(SCC(=O)Nc4ccc(S(=O)(=O)NC5CC5)cc4)nc3)[nH]c2cc1C	-3.8	-4.0	4.0	10.5	11.1	-0.1	0.0	-52.0%
31	CC(C)Oc1ccc2ccccc2c1C=O	-0.1	5.2	-11.2	x	3.3	2.2	-5.3	75.4%
32	CN1CCN(c2ccc(S(=O)(=O)N3CCCCC3)cc2[N+](=O)[O-])CC1	0.5	-2.2	-3.2	2.0	68.0*	-1.7	-2.3	5.9%
33	O=C(N/N=C/c1ccc2c(c1)OCO2)c1ccccn1	-5.6	2.2	40.0	-6.8	-1.9	3.3	3.6	2.5%
34	COc1cc(C(=O)Nc2ccc(N(C)C)cc2)c([N+](=O)[O-])cc1OC	-1.2	-4.6	3.9	3.0	-4.8	x	-12.8	x
35	CNC(=O)c1ccccc1F	-0.1	-1.6	-4.3	x	6.3	-2.4	0.2	2.6%
36	COc1ccccc1CNC(=O)CN1C(=O)NC(C)(c2ccc(C(C)(C)C)cc2)C1=O (stereo not drawn)	-0.2	2.1	-10.7	2.7	6.3	-1.1	-11.1	-6.3%
37	CNC(=O)C1=NCCCc2cc(OC)c(OC)cc21	0.5	3.7	0.5	x	-12.8	-0.9	44.6	-4.8%
38	O=C(N/N=C/c1cc(Br)c(O)c(Br)c1)c1cccnc1	0.5	-7.0	x	2.5	-5.8	6.1	19.3	-0.5%
39	CC1CCCC(NC(=O)C2CCN(S(=O)(=O)c3cccc4nonc34)CC2)C1C (stereo not drawn)	-0.7	4.4	-2.6	3.8	8.2	-4.2	-0.5	-5.0%
40	O=C(NCC1CCCO1)c1nn2c(c1Cl)NC(c1ccc(F)cc1)CC2C(F)(F)F (stereo not drawn)	-0.7	-0.3	-5.8	x	x	x	x	-16.0%
41	NC(=O)C1CCN(C(=O)Cc2ccsc2)CC1	0.2	1.4	-2.1	6.4	-32.2	-4.3	u	x
42	O=C(NCCCN1CCCC1=O)c1ccc(S(=O)(=O)Nc2ccccc2)cc1	0.3	-2.0	x	0.6	-2.7	-2.4	1.0	2.1%
43	COCCCNC(=O)CN(c1ccc(F)cc1)S(=O)(=O)c1ccc2c(c1)OCCO2	-0.7	-0.7	0.4	-6.1	0.2	3.3	-1.4	x
44	COc1ccc(C(=O)Nc2ccc3c(c2)C(=O)NC3=O)cc1	0.0	-2.2	1.2	-2.9	-12.4	8.3	-2.6	x
45	C=CCN(CC=C)S(=O)(=O)c1ccc(C(=O)Nc2sc3c(c2C(N)=O)CCCCC3)cc1	1.2	2.6	56.6	x	1.2	6.4	-5.9	-0.1%
46	Cc1cc(NC(=O)CSCC(=O)Nc2nc3ccccc3s2)no1	-0.5	-0.6	-9.9	-1.3	x	x	x	0.8%
47	COC(=O)c1ccc(NC(=O)c2cccc(OC)c2)cc1	0.1	5.1	-5.5	x	-5.1	1.9	5.5	-3.8%
48	O=C(NNS(=O)(=O)c1ccc(F)cc1)c1ccc([N+](=O)[O-])cc1	0.5	-2.5	-9.2	x	-7.6	5.8	1.0	1.7%
49	CCOC(=O)c1ccccc1NC(=O)CN(c1cccc(OC)c1)S(C)(=O)=O	0.5	-1.7	5.4	x	-3.2	0.5	17.9	16.5%
50	COc1ccc(OCC(=O)N2CCN(C(=O)c3ccccc3)CC2)cc1	0.7	-3.8	-1.1	x	-2.7	-3.7	1.3	-2.9%
51	COc1ccc(Br)cc1S(=O)(=O)Nc1ncccc1C	0.6	-1.4	-2.4	-1.3	-4.1	-9.7	14.1	-10.2%
52	CC(NCCC1(C(C)C)CCOC(C)(C)C1)c1cccs1 (stereo not drawn)	-0.7	1.4	-2.7	-1.3	25.8	1.2	1.7	-1.0%
53	COc1cccc2c1OCC(CN1CCN(CCC(C)C)C(CCO)C1)=C2 (stereo not drawn)	0.0	5.1	x	1.1	17.5	1.7	1.6	x
54	COc1ccc(/C=C/C(=O)OCC(=O)c2ccc(S(=O)(=O)N3CCCCC3)cc2)cc1OC	-1.2	0.9	-0.7	10.6	26.0	-4.3	0.2	-1.3%
55	COc1ccc2oc(C(=O)N3CCN(C(c4ccccc4)c4ccccc4)CC3)c(C)c2c1	-0.2	-1.9	1.1	-0.4	46.5	1.6	2.5	-6.0%
56	CC1(C)C(=O)N(c2ccccc2Cl)C(=O)c2ccccc21	-0.1	-5.7	x	1.2	-1.2	-2.3	-5.2	x
57	Nc1ccccc1-c1nnn(CC(=O)N2CCCc3ccccc32)n1	0.6	-1.6	0.6	-1.8	-2.8	0.1	12.4	-1.1%
58	O=C1CN(C(=O)COC(=O)c2cccc(OCc3ccccc3)c2)c2ccccc2N1	-6.5	-4.7	-2.3	x	5.4	-2.1	-10.1	u
59	COC(=O)c1cn[nH]c1N	0.5	4.8	-4.0	x	x	x	x	-3.3%
60	CCn1c(COc2ccc(Cl)cc2)nnc1SCC(=O)Nc1ccc2c(c1)OCO2	0.0	2.0	4.7	x	x	4.7	-10.9	u
61	O=C(Nc1cccc(S(=O)(=O)N2CCCCC2)c1)c1c2c(nc3ccccc13)CCN(Cc1ccccc1)C2	0.2	2.3	-17.5	7.4	42.8	-1.0	u	0.0%
